# Source: PubChem BioAssay (National Center for Advancing Translational Sciences (NCATS))
# Six1-Eya2 inh: qHTS Assay for Inhibitors of the Six1/Eya2 Interaction | Homeobox protein SIX1 (Homo sapiens) + Protein phosphatase EYA2 (Homo sapiens), … | AlphaScreen GST-Six1/His-Eya2 binding, biochemical; hits give low values; control for the full effect not named in the record | activity change, % (concentration not given with the values) | 360,000 compounds, 0.56% hits; in the data active = activity change below about -65%; inconclusive = about -30% to -65%; inactive = above about -30%; also: % is scaled to controls: 0 for no effect and ±100 for the full control effect
#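 AlphaScreen luminescence read after one hour at 37 °C in darkness. Pin-transferred compounds met GST-Six1 and His-Eya2 protein (5X stock 250 nM/500 nM) plus glutathione donor and Ni-chelate acceptor beads (5X, 50 ug/mL).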
# CtBP-E1A inh: qHTS Assay for Inhibitors of the CtBP/E1A Interaction. 340,000 compounds, 0.49% hits. CtBP / adenovirus E1A interaction (AlphaScreen). AID 651724, 2012. activity change, % (no concentration beside the values). AlphaScreen GST-E1A/His-CtBP binding, 1536-well; hits give low values; control for the full effect not named in the record; in the data active means activity change below about -65%; inconclusive means about -30% to -65%; inactive means above about -30%; also: % is scaled to controls: 0 for no effect and ±100 for the full control effect
#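 Steps: dispense buffer (Tris pH 8.0, NaCl 300 mM, TCEP 1 mM, BSA, Tween 20); add 5X protein mix (GST-E1A, His-CtBP, 125 nM each); pin 23 nL compound; 2 h at 37 °C, dark; add 5X beads (50 ug/mL); 1 h; read.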
# TRPML1 ag: qHTS for Agonists of the Human Mucolipin Transient Receptor Potential 1 (TRPML1); 410,000 compounds, 0.12% hits; activation, % (concentration not given with the values); AID 624414, 2012; Mucolipin-1 (Homo sapiens), Q9GZU1; TRPML1-expressing cells, Ca2+ dye fluorescence, FDSS; host cell line not named in the record; reference of the full effect not given here; in the data active = activation above about 50%; inconclusive = about 30% to 50%; inactive = below about 30%; also: 0% is about no effect; the text of the record puts the active cut at 80%
#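 In this qHTS format, compounds were pin-transferred onto Ca8-dye-loaded TRPML1-DL cells induced with Tet overnight, and intracellular Ca2+ fluorescence was recorded kinetically for 110 s after a 10 s baseline. A subsequent 4uM final 54-4 (EC80) addition followed by a second 110 s read served as the antagonist phase.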
# D2 PAM: Beta-Arrestin HTS for Positive Allosteric Modulators of the Human D2 Dopamine Receptor: Potentiators | DiscoveRx D2 beta-arrestin cells, luminescence, 90 min; 100% = 57 uM dopamine signal | potentiation, % (no concentration beside the values) | 360,000 compounds, 0.23% hits; active = potentiation of 50% or more; inconclusive = 30% to 50%; inactive = 30% or less;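 also: compound concentration not given in the record; tested on top of an EC20 dose of dopamine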
#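 D2 cells co-treated with compound plus 50 nM dopamine (EC20) for 90 min at 37 deg C to detect potentiation. Beta-arrestin recruitment was read as enzyme-fragment luminescence after 1 h at ambient temperature. Full response was set by 57 uM dopamine.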
# TRPML1 inh: qHTS for Inhibitors of the Human Mucolipin Transient Receptor Potential 1 (TRPML1); 390,000 compounds, 0.02% hits; activity change, negative = inhibition, % (no concentration beside the values); TRPML1-inducible cells, Ca2+ dye fluorescence, FDSS; hits give low values; inhibition of EC80 agonist-evoked calcium signal; AID 624415, 2012; Mucolipin-1 (Homo sapiens), Q9GZU1; in the data active means activity change below about -50%; inconclusive means about -30% to -50%; inactive means above about -30%;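 also: stimulus is agonist 54-4 at its EC80 concentration; % is scaled to controls: 0 for no effect and ±100 for the full control effect; compound concentration not given in the record; the text of the record puts the active cut at -80%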
#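 TRPML1-DL cells, Tet-induced overnight (~16 h, 37 °C) at 1,500 cells/well, were loaded with Ca8 no-wash dye plus quencher for 45-90 min at room temperature. Compounds were pinned during FDSS kinetic reading; agonist 54-4 at EC80 (4 uM final) then added.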
# TRPV1 potentiator: HTS Assay for Compounds that Act as Potentiators of the Vanilloid Receptor 1 | Transient receptor potential cation channel subfamily V member 1 (Homo sapiens), Q8NER1 | TRPV1-expressing cells, Fluo-8 calcium influx, capsaicin EC20 potentiation; host cell line not named in the record; control for the full effect not named in the record | potentiation, % at 8.33 µM | 320,000 compounds, 0.02% hits; active means potentiation above 80%; inconclusive means 30% to 80%; inactive means below 30%; also: 0% is about no effect
# Target sequence (Q8NER1 whole entry, looked up): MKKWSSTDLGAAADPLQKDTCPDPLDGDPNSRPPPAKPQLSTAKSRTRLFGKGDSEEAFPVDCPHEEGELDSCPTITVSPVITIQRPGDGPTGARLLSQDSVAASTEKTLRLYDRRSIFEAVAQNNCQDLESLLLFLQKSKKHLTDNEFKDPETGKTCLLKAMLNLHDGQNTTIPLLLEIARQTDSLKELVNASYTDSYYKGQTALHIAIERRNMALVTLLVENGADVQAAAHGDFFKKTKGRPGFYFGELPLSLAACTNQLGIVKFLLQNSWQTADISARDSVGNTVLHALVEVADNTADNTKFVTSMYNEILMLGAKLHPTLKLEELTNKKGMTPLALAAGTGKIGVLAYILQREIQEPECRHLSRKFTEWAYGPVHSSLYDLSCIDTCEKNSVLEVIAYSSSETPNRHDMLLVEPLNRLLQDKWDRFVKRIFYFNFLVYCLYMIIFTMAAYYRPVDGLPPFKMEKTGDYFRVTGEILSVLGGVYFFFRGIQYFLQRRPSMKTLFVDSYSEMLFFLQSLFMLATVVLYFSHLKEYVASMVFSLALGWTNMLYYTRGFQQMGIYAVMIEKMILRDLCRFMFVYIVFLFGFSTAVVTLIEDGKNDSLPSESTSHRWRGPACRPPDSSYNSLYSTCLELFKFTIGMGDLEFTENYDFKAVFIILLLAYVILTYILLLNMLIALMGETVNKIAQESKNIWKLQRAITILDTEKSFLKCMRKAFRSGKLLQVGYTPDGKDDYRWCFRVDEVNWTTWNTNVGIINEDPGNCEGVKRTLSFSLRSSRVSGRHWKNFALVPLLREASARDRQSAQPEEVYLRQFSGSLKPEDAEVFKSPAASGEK
#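 TRPV1-expressing cells were cultured overnight at 35.5C and loaded with Fluo-8 calcium dye for 40 to 90 min at room temperature. After a 10 s baseline, compound was added and calcium influx was read kinetically for 3 min (ex 480/em 520 nm).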
# Active calls of the source: *; u = inconclusive; x = no result given.
SMILES,Six1-Eya2 inh,CtBP-E1A inh,TRPML1 ag,D2 PAM,TRPML1 inh,TRPV1 potentiator
CCc1nnc(NC(=O)CCC(=O)Nc2ccc(OC)cc2OC)s1,4,-5,-1.2,-15,-6,2
CCOc1ccc(S(=O)(=O)N2CCC(C(=O)Nc3ccc(C)c(S(=O)(=O)N4CCOCC4)c3)CC2)cc1,-8,x,-0.8,4,2,x
COC(=O)C1(CC2CC(c3ccc(Cl)cc3)=NO2)CCN(C(=O)OC(C)(C)C)CC1 (centres undefined),8,x,1.2,-16,21,13
Cc1c(C)c2c(OCC(=O)Nc3cccnc3)cc3c(c2oc1=O)CCC(C)(C)O3,7,10,x,3,x,-10
O=C(c1ccc(OC2CCN(CCc3ccccc3)CC2)cc1)N1CCCC(CO)C1 (centres undefined),1,x,0.7,-21,3,-7
COc1ccc(-c2ccnc3ncnn23)cc1,8,0,0.1,-5,1,7
CC(C)CC(=O)Nc1c(C(=O)N2CCN(Cc3ccccc3)CC2)oc2ccccc12,-6,-11,0.6,-32,-11,-1
Cn1c(=O)n(C)c2cc(NC(=O)COc3ccc(Cl)cc3)ccc21,7,0,-0.3,-8,12,-3
COc1ccc(OCCC(=O)N2CCOCC2)cc1,5,2,-1.0,-4,-3,-8
CN(Cc1cccnc1)C(=O)Cc1ccc(NS(=O)(=O)c2cccc(C(F)(F)F)c2)cc1,-2,6,-0.5,1,-1,u
O=C(CN1C2=NCCCN2c2ccccc21)c1ccc([N+](=O)[O-])cc1,0,1,4.6,-2,7,-10
O=c1cc(-c2ccccc2)cc(-c2ccccc2)n1CCCO,-9,-16,-0.4,-12,3,-12
C/C(=N\O)C(=O)OC1CC(C)CCC1C(C)C (centres undefined),-2,0,1.7,3,4,-20
Cc1ccccc1NC(=O)c1c([N+](=O)[O-])c(C(C)(C)C)nn1C,0,0,-0.6,-2,3,7
CC(C)NC(=O)N(C)C[C@H]1OCCCC[C@H](C)Oc2ccc(NC(=O)NC3CCCCC3)cc2C(=O)N([C@H](C)CO)C[C@@H]1C,9,3,-0.7,-8,8,x
COc1ccc(N2CCN(C(=O)C3CCCO3)CC2)cc1 (centres undefined),5,3,-0.2,-5,1,-2
COC(=O)C(Cc1ccc(O)cc1)NC(=O)Cn1cc(C)c(=O)[nH]c1=O (centres undefined),2,-1,0.2,-11,6,x
COC(=O)C1(C)NC(c2ccc(O)cc2)C2C(=O)N(c3ccc4c(c3)OCCO4)C(=O)C21 (centres undefined),2,3,0.4,-13,-4,4
COc1ccc(CCNC(=O)CC2SC(=NCc3ccccc3)NC2=O)cc1 (centres undefined),2,1,-0.5,1,28,11
CCOc1ccccc1NC(=O)COc1ccc(S(=O)(=O)N2CCCC2)cc1,-9,-18,2.6,-4,18,3
COc1ccc(/C=N/S(=O)(=O)c2ccccc2)cc1OC,1,0,0.4,4,22,4
CCCCN(C)CCCNC(=O)c1ccc2c(c1)NC(=O)C(N1CCOCC1)S2 (centres undefined),-2,2,-0.8,-18,31,-11
CCc1ccc(C2N(c3ccc(OC)cc3)C(=O)C3CCCN32)cc1 (centres undefined),12,-24,0.8,-3,0,x
Fc1ccc(-c2ccnc3nc(N4CCOCC4)nn23)cc1,1,0,0.1,-7,u,-11
CN(C(=O)COC(=O)c1cc(=O)[nH]c2ccccc12)C1CCCCC1,7,-2,0.5,-4,-8,u

# Complete entries from above.
# O=C(CN1C2=NCCCN2c2ccccc21)c1ccc([N+](=O)[O-])cc1 in the list: Six1-Eya2 inh: 0; CtBP-E1A inh: 1; TRPML1 ag: 4.6; D2 PAM: -2; TRPML1 inh: 7; TRPV1 potentiator: -10
# Cc1ccccc1NC(=O)c1c([N+](=O)[O-])c(C(C)(C)C)nn1C in the list: Six1-Eya2 inh: 0; CtBP-E1A inh: 0; TRPML1 ag: -0.6; D2 PAM: -2; TRPML1 inh: 3; TRPV1 potentiator: 7
# CCc1ccc(C2N(c3ccc(OC)cc3)C(=O)C3CCCN32)cc1 (centres undefined) in the list: Six1-Eya2 inh: 12; CtBP-E1A inh: -24; TRPML1 ag: 0.8; D2 PAM: -3; TRPML1 inh: 0; TRPV1 potentiator: x

# The list goes on:
SMILES,Six1-Eya2 inh,CtBP-E1A inh,TRPML1 ag,D2 PAM,TRPML1 inh,TRPV1 potentiator
COc1ccc(OCCCC(=O)OC(C)C(=O)Nc2ccccc2[N+](=O)[O-])cc1 (centres undefined),u,-18,3.6,5,34,u
COC(=O)c1sccc1S(=O)(=O)Nc1ccc(S(N)(=O)=O)cc1,-2,-25,0.4,-9,21,27
O=C(CC1CC2CCC1C2)OCC(=O)c1c[nH]c2ccccc12 (centres undefined),9,10,-1.4,-8,-9,6
O=c1[nH]c(C(Cl)Cl)nc2sc3c(c12)CCN(Cc1ccccc1)C3,-16,0,0.0,-8,-5,15
O=C(CSc1nc(-c2ccco2)cc(C(F)(F)F)n1)N1CCN(Cc2ccccc2)CC1,-14,-1,0.5,-3,6,x
COc1ccc(CC(=O)N2CCNC2=O)cc1,0,6,-0.8,-10,-6,5
COc1ccccc1C(=O)Nc1c2c(nn1-c1ccc(Cl)cc1)CS(=O)(=O)C2,1,-13,0.2,-4,30,10
CC(C)CC(CCc1ccccc1)OS(N)(=O)=O (centres undefined),3,1,-0.4,-31,-10,2
Cc1ccc(S(=O)(=O)Nc2ccccc2N2CCOCC2)cc1,8,2,64*,-11,-9,-3
CCN(CC)c1ccc(NC(=O)CN2CCN(CC(=O)Nc3ccccc3F)CC2)cc1,-24,-8,-0.1,-8,-4,0
Cc1cc(Cl)ccc1C(O)c1ncc(-c2cccc(F)c2)[nH]1 (centres undefined),-5,-8,-0.7,-5,x,x
CC(C)(C)c1cc(C(=O)N/N=C/c2ccccn2)n[nH]1,-5,x,0.6,13,2,6
Clc1ccccc1/C=N/Nc1cc(N2CCOCC2)ncn1,-18,1,0.6,-4,14,8
COc1cc(CNC(C)(C)CO)ccc1OCC(=O)NC(C)(C)C,1,-2,1.1,2,-8,0
CS(=O)(=O)N(CC(=O)NCCc1ccccc1)C1CCCCC1,4,7,0.4,-8,-7,17
CC(C)N(C(=O)Nc1ccc2nccnc2c1)C(C)C,-18,-5,-0.4,2,1,4
CCN(Cc1ccncc1)C(=O)Cc1cccs1,1,x,x,-2,x,4
COc1ccc(S(=O)(=O)N(CC(=O)N2CCN(c3ccccc3)CC2)c2ccccc2)cc1,-1,5,-0.2,-10,-12,-10
COc1cc(CC(=O)NCc2ccco2)cc(OC)c1OC,-4,2,-0.7,2,-5,-2
N#Cc1ccc(-c2nc3ccc(Br)cn3c2Cc2ccccc2C(F)(F)F)cc1,-1,-1,0.0,1,x,x
Cc1cn2c(=O)c(C(=O)N3CCN(c4ccccc4Cl)CC3)cnc2s1,1,0,-0.8,13,-5,-13
COCCN1Cc2cccc(C(=O)Nc3cc(C)cc(C)c3)c2C1=O,u,u,0.1,-17,u,-8
CC(=O)Nc1ccc(NCCc2cccs2)cc1,-2,0,-0.7,0,x,x
O=C(c1ccc(Br)cc1)c1cc2ccc(O)cc2oc1=O,-3,-3,1.5,0,0,-4
CN(C)S(=O)(=O)c1ccc(N2CCN(S(=O)(=O)c3ccc(F)cc3)CC2)c(Cl)c1,-2,5,3.9,12,18,6

# Further structures:
SMILES,Six1-Eya2 inh,CtBP-E1A inh,TRPML1 ag,D2 PAM,TRPML1 inh,TRPV1 potentiator
CC1CN(c2nc(-c3ccccc3)nnc2-c2ccccc2)CC(C)O1 (centres undefined),-6,-2,0.2,-22,12,-11
C[C@H](CO)N1C[C@H](C)[C@@H](CN(C)C(=O)Nc2ccc3c(c2)OCO3)Oc2c(NC(=O)C3CC3)cccc2C1=O,1,-22,-0.2,-9,3,x
Cc1ccc(CS(=O)(=O)CCC(=O)NCc2ccccc2Cl)cc1,5,7,0.8,-6,3,-3
O=C(O)/C=C/c1ccc(S(=O)(=O)NCc2cccnc2)cc1,0,3,x,-7,x,-4
O=C(N/N=C/c1ccc(N2CCOCC2)cc1)c1ccc(NS(=O)(=O)c2cccs2)cc1,2,-4,-0.8,-15,-18,4
O=C(COC(=O)c1ccc2ncsc2c1)NCc1ccccc1Cl,-5,x,-0.4,1,0,x
NC(N)=Nc1nc(-c2ccccc2)c2cc(F)ccc2n1,-15,-12,-0.6,-10,2,9
Cc1ccc(C(C)C)c(OCC(=O)Nc2ccc(Cl)cn2)c1,13,10,0.3,-21,-3,-8
COC(=O)c1ccc(OC(=O)N2CCOCC2)cc1,3,-1,0.0,1,2,-2
Cc1nnc(NC(=O)NCN2C(=O)C3C4C=CC(C4)C3C2=O)s1 (centres undefined),-1,-3,-0.4,-25,1,-4
CCOc1cccc(C2C(C(=O)c3ccc(C)o3)=C(O)C(=O)N2c2nccs2)c1 (centres undefined),-3,-1,5.9,12,0,-3
Nc1c(N(Cc2ccco2)C(=O)c2ccccc2F)c(=O)[nH]c(=O)n1Cc1ccccc1,0,-3,-0.4,-4,-23,0
CCOc1ccc(CNS(=O)(=O)c2ccc3c(c2)CC(=O)N3C)cc1,0,x,1.2,-10,-14,-6
Cc1ccccc1OCC(=O)OCC(=O)NCc1ccccc1Cl,0,x,0.1,-5,-6,x
CCC1SC(CC)C(=O)N(CC(=O)NC2CCCCC2)C1=O (centres undefined),-5,-7,0.8,-2,-5,1
CN(C)c1ccnc2sc3c(=O)n(Cc4ccccc4)cnc3c12,3,6,2.7,-6,-9,-4
CSc1ccc(S(=O)(=O)NCc2ccccc2Cl)cc1,9,11,0.7,-8,-4,27
O=[N+]([O-])c1ccc(CS(=O)(=O)c2ccc(Cl)cc2)cc1,-7,-24,1.6,-5,-11,-16
O=C(N[C@@H](Cc1ccccc1)C(=O)O)c1ccncc1,1,1,-0.5,-8,12,28
CN(c1ncc(C(F)(F)F)cc1Cl)n1cc(C(=O)O)c2ccccc2c1=O,1,9,0.3,-4,-8,7
CC(C)(C)c1cc(NCCCn2ccnc2)n2ncc(-c3ccccc3)c2n1,-1,0,-0.2,-1,2,x
Cc1cc(N2CCN(c3nc4ccccc4s3)CC2)n2ncnc2n1,-9,-15,1.4,0,-21,-1
CN1CCN(C(=O)C2=C[C@@H](c3coc4ccccc4c3=O)C[C@@H](OCc3ccc(CO)cc3)O2)CC1,0,6,-0.2,-13,3,-6
COc1ccc(CNc2ncnc(N)n2)cc1,-1,3,-0.7,4,17,4

# Copied from the list:
# TRPV1 potentiator result of Cc1ccc(CS(=O)(=O)CCC(=O)NCc2ccccc2Cl)cc1 reads -3
# D2 PAM result of Nc1c(N(Cc2ccco2)C(=O)c2ccccc2F)c(=O)[nH]c(=O)n1Cc1ccccc1 reads -4
# D2 PAM result of O=C(COC(=O)c1ccc2ncsc2c1)NCc1ccccc1Cl reads 1
